Screening data as filed in PubChem.
VACV E9 pol inh: vaccinia E9 polymerase processive synthesis inhibition. in vitro processive DNA synthesis, absorbance read-out; hits give low values; some inactives read as strong as hits. normalized absorbance, % (test concentration not listed). hit rate 0.94% among 46,000. AID 493162;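 active means replicate mean up to 90% and picked by the depositor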;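 further: 100% = median of the test wells of a plate; 100 nL library stock went into each well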
Starred values were filed as active, the others as inactive; & = joins results of further samples.

The first 10 compounds as a preview:
item	SMILES	VACV E9 pol inh
1	Cc1ccc(N2CC(c3nc4ccccc4[nH]3)CC2=O)c(C)c1 (stereo unspecified)	100
2	CN(CCc1ccccn1)S(=O)(=O)c1ccc2c(c1)CCO2	94
3	CN1CCN(C2=Nc3cc(Cl)ccc3Nc3ccccc32)CC1	101&100
4	CC1(C)Cc2ccccc2C(C(Cc2ccccc2)C(N)=O)=N1 (stereo unspecified)	100
5	O=C(O)CCn1c(SCCOc2ccccc2)nc2ccccc21	100
6	CCOC(=O)N1CCC(NC(=O)c2sc3ccccc3c2Cl)CC1	93
7	Cc1cc(NC(=O)C(C)C)nc2c1c(=O)oc1ccccc12	100
8	O=S(=O)(Cc1nc2ccccc2s1)c1ccccc1	100
9	Cc1ccc2cc(CCNC(=O)c3ccc(Cl)cc3Cl)c(=O)[nH]c2c1	92
10	O=C(Nc1nc(-c2ccccc2)nc2c1C(=O)CCC2)c1ccccc1	94

All compounds of this part, from the start:
item	SMILES	VACV E9 pol inh
1	Cc1ccc(N2CC(c3nc4ccccc4[nH]3)CC2=O)c(C)c1 (stereo unspecified)	100
2	CN(CCc1ccccn1)S(=O)(=O)c1ccc2c(c1)CCO2	94
3	CN1CCN(C2=Nc3cc(Cl)ccc3Nc3ccccc32)CC1	101&100
4	CC1(C)Cc2ccccc2C(C(Cc2ccccc2)C(N)=O)=N1 (stereo unspecified)	100
5	O=C(O)CCn1c(SCCOc2ccccc2)nc2ccccc21	100
6	CCOC(=O)N1CCC(NC(=O)c2sc3ccccc3c2Cl)CC1	93
7	Cc1cc(NC(=O)C(C)C)nc2c1c(=O)oc1ccccc12	100
8	O=S(=O)(Cc1nc2ccccc2s1)c1ccccc1	100
9	Cc1ccc2cc(CCNC(=O)c3ccc(Cl)cc3Cl)c(=O)[nH]c2c1	92
10	O=C(Nc1nc(-c2ccccc2)nc2c1C(=O)CCC2)c1ccccc1	94
11	O=C(NCCc1c[nH]c2ccccc12)Nc1ccccc1	86
12	Cc1ccc2c(c1)C(c1ccccc1)CC(C)N2S(=O)(=O)c1cccc(Cl)c1 (stereo unspecified)	100
13	C=CCn1c(=O)c2ccc(C(=O)NCc3ccccc3)cc2n(CC(=O)n2nc(N)cc2C)c1=O	102
14	Cc1ccc(-c2cc(C(=O)N3C(C)CCCC3C)[nH]n2)cc1 (stereo unspecified)	106
15	Cc1ccc(Nc2ccc(NCc3ccccc3)nn2)cc1C	93

Part of the list above in another layout:
(10) O=C(Nc1nc(-c2ccccc2)nc2c1C(=O)CCC2)c1ccccc1
  VACV E9 pol inh = 94

(11) O=C(NCCc1c[nH]c2ccccc12)Nc1ccccc1
  VACV E9 pol inh = 86

(12) Cc1ccc2c(c1)C(c1ccccc1)CC(C)N2S(=O)(=O)c1cccc(Cl)c1 (stereo unspecified)
  VACV E9 pol inh = 100

(13) C=CCn1c(=O)c2ccc(C(=O)NCc3ccccc3)cc2n(CC(=O)n2nc(N)cc2C)c1=O
  VACV E9 pol inh = 102

Remaining list, next part:
item	SMILES	VACV E9 pol inh
16	O=C(/C=C/c1ccc(Cl)cc1)OCC(=O)c1ccccc1	101
17	CCCCn1c(CCCNC(=O)C(C)(C)C)nc2ccccc21	91
18	CCOc1cccc2cc(-c3nc4ccccc4s3)c(=O)oc12	96
19	C=CCn1c2ccccc2c2nn(C)c(=S)nc21	108
20	O=C(NC1CCCCC1)N1CCCCCCC1	92
21	CCOC(=O)Cn1c(=O)c2cnc3c(c(C)nn3C)c2n1C	102
22	CN(C)C(=O)Oc1nnc(SCC(=O)c2ccc3c(c2)OCCO3)n1C1Cc2ccccc2C1	106
23	N#CCN(CC#N)C(=O)c1cc(Cl)ccc1Cl	99
24	CCC(=O)Nc1nnc(SCc2ccc(C(F)(F)F)cc2)s1	100
25	CCOC(=O)c1c(-c2c(Cl)cccc2Cl)noc1C	108
26	NC(C(=O)O)c1ccccc1F (stereo unspecified)	108
27	OCCN1CN=C(SCc2ccc(Cl)c(Cl)c2)NC1	100
28	Cn1nc(C(F)(F)F)cc1Cl	100
29	CCC(CC)C(=O)c1c[nH]c(C(=O)OC)c1	97
30	CCCCN(C)C(=O)c1nn(C)c2c1CSc1ccccc1-2	99
31	O=C(COc1ccc2ccccc2c1)NS(=O)(=O)c1ccccc1	99
32	CC(=O)NCCc1cc2ccc(C)cc2[nH]c1=O	101
33	CCCc1c(C(=O)OCC)[nH]c2c1C(=O)CC(c1ccccc1)C2 (stereo unspecified)	85
34	Cc1cc(C)cc(CC2CC(=O)N(CC(=O)O)C2=O)c1 (stereo unspecified)	92
35	CCc1cccc(NC(=O)c2cc3cc4ccc(OC)cc4nc3o2)c1	50
36	CN(C)c1nn(C(=S)Nc2ccccc2)cc1-c1ccccc1	127
37	O=C(O)C1CCCN1C(=O)c1cccnc1 (stereo unspecified)	94
38	Cc1cc(N=Cc2ccc3ncccc3c2)ccc1Br	92
39	N#Cc1nc(-c2ccccc2)oc1NN	97
40	COc1ccc(/C=C/C(=O)NCCSc2c[nH]c3ccccc23)cc1OC	101
41	Cc1noc(/C=C/N(C)C)c1S(=O)(=O)N(C)c1ccc(C(C)C)cc1	100
42	Cc1ccccc1CN1C(=O)/C(=C\c2ccc(C(=O)N3CCOCC3)cc2)Sc2ccccc21	101
43	O=C(O)CSc1ccc2ccccc2n1	103
44	CC1Cc2cc(S(=O)(=O)N(C)CC(=O)NCc3ccccc3)ccc2N1C(=O)C1CC1 (stereo unspecified)	96
45	O=C(c1ccccc1)c1cnn(-c2ccc(Cl)cc2)n1	101

As entered above.
COc1ccc(/C=C/C(=O)NCCSc2c[nH]c3ccccc23)cc1OC | VACV E9 pol inh = 101
O=C(O)CSc1ccc2ccccc2n1 | VACV E9 pol inh = 103
N#Cc1nc(-c2ccccc2)oc1NN | VACV E9 pol inh = 97
CCCc1c(C(=O)OCC)[nH]c2c1C(=O)CC(c1ccccc1)C2 (stereo unspecified) | VACV E9 pol inh = 85

Other compounds follow:
item	SMILES	VACV E9 pol inh
46	Cc1csc(NC(=O)NC(C)(C)C)n1	96
47	O=C(OC(C(=O)Nc1ccc(Cl)cc1C(F)(F)F)c1ccccc1)c1ccncc1 (stereo unspecified)	107
48	Cc1cc(C)n2c(Nc3cccc(C(F)(F)F)c3)c(-c3ccc(O)cc3)nc2n1	102
49	CSC1=NCCCN1C(=O)c1ccccc1I	82
50	O=C(NCCC1=CCCCC1)c1cc(-c2ccco2)[nH]n1	104
51	CC(NCC(O)COc1ccc2c(c1)CCC2)c1ccccc1 (stereo unspecified)	101
52	NC(=O)CSc1nc2c([nH]c3ccccc32)c(=O)n1-c1cccc(Cl)c1	110
53	O=C1C(SCCO)=C(SCCO)C(=O)c2ccccc21	92
54	COc1c2ccoc2nc2c(OC)c(O)ccc12	96
55	CCCOC(=O)CSC1=C(C#N)C(c2ccccc2)CC(=O)N1 (stereo unspecified)	98
56	CC(=O)Oc1cccc(/C=C2\Sc3ccccc3C2=O)c1	96
57	CCc1ccc(Oc2coc3cc(OC(=O)C4CCCCC4)ccc3c2=O)cc1	100
58	O=C(O)Cc1c(-c2ccccc2)c2cc(Br)ccc2[nH]c1=O	92
59	O=C(Oc1ccc2cc(Br)ccc2c1)c1ccncc1	99
60	O=C(CCN1CCCCC1)NCC1OCCc2ccccc21 (stereo unspecified)	83
61	CC(=O)Nc1ccc(C(O)(C(F)(F)F)C(F)(F)F)cc1	98
62	Clc1ccc2nc(-n3nc4ccccc4n3)nc(-c3ccccc3)c2c1	100
63	COc1cc(/C=C2/SC(=O)N(c3ccc(C)cc3)C2=O)ccc1O	110
64	Cc1cccc(C#CCN2CCCCC2)c1	100
65	O=S(=O)(NCCCn1ccnc1)c1cc(Cl)ccc1Cl	100
66	Cc1ccc2c(c1)sc(=NC(=O)c1cc(Cl)sc1Cl)n2C	101
67	COc1cc(NC(=O)CC(C)(C)C)c(OC)cc1Cl	102
68	COc1ccc(N=Cc2c(O)ccc3oc4c(c23)CCCC4)cc1	100
69	Cc1ccc(Cn2nnc3c(=O)n(Cc4ccc(C(F)(F)F)cc4)cnc32)cc1	98
70	O=C(COc1ccc(Cl)cc1)NC1CN2CCC1CC2 (stereo unspecified)	92
71	COc1ccc(N(C)C(=O)c2cnc(N3CCN(c4ncccn4)CC3)c3ccccc23)cc1	104
72	COC(=O)c1ccc(/C=C2/SC(=Nc3cccnc3)NC2=O)cc1	100
73	O=C(c1ccccc1)c1nnc(-c2ccccc2)s1	95
74	Oc1ccc(C=Nc2ccc(N3CCOCC3)cc2)cc1O	100
75	O=C(Nn1c(=O)[nH]c2ccsc2c1=O)c1ccccc1	102
76	Cc1cc(C)c2c(n1)sc1c(SCc3ccccc3)nc(C)nc12	100
77	CC(C)CCSc1nc2ncn(C)c2c(=O)[nH]1	95
78	COc1ccccc1NC(=O)c1c(N=Cc2c(O)ccc3ccccc23)cnn1C	100
79	CC1CCCC(NC(=O)c2cc(S(=O)(=O)N3CCCCC3)c[nH]2)C1C (stereo unspecified)	101
80	CCCOC(=O)c1[nH]c2c(c1C)C(=O)CCC2	101
81	COC(=O)C(C)Sc1nnc(-c2c[nH]c3ccccc23)n1-c1ccc(F)cc1 (stereo unspecified)	100
82	O=C1c2ccccc2C(O)(c2ncc[nH]2)N1CCc1ccccc1 (stereo unspecified)	100
83	O=C1N/C(=N\S(=O)(=O)c2ccccc2)S/C1=C/c1ccco1	92
84	N#Cc1ccccc1CS(=O)(=O)c1nc2ncccc2[nH]1	100
85	CC(Oc1ccc(Cl)cc1Cl)/C(N)=N/O (stereo unspecified)	95
86	CCC1CCCCN1C(=O)CNc1ccc(C)cc1Cl (stereo unspecified)	88

4 entries from above, sorted by SMILES length, smallest number first.
item	SMILES	VACV E9 pol inh
85	CC(Oc1ccc(Cl)cc1Cl)/C(N)=N/O (stereo unspecified)	95
77	CC(C)CCSc1nc2ncn(C)c2c(=O)[nH]1	95
80	CCCOC(=O)c1[nH]c2c(c1C)C(=O)CCC2	101
81	COC(=O)C(C)Sc1nnc(-c2c[nH]c3ccccc23)n1-c1ccc(F)cc1 (stereo unspecified)	100

These rows are one share of the data; the hit share may differ from the screen's.
